RecA intein inh: Mtb RecA intein splicing inhibitors, primary screen, biochemical, fluorescence, HTS; Protein RecA (Mycobacterium tuberculosis (strain ATCC 25618 / H37Rv)), P9WHJ3; cell-free RecA intein splicing; inhibition, %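 (about 9 µM by stock and volumes)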; 0.75% of 290,000 active; in the data active = inhibition above about 30%; inconclusive = no clear call, values can overlap the other calls;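 note: 0% = vehicle wells and 100% = reference inhibitor control wells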
Target sequence (P9WHJ3 whole entry, looked up): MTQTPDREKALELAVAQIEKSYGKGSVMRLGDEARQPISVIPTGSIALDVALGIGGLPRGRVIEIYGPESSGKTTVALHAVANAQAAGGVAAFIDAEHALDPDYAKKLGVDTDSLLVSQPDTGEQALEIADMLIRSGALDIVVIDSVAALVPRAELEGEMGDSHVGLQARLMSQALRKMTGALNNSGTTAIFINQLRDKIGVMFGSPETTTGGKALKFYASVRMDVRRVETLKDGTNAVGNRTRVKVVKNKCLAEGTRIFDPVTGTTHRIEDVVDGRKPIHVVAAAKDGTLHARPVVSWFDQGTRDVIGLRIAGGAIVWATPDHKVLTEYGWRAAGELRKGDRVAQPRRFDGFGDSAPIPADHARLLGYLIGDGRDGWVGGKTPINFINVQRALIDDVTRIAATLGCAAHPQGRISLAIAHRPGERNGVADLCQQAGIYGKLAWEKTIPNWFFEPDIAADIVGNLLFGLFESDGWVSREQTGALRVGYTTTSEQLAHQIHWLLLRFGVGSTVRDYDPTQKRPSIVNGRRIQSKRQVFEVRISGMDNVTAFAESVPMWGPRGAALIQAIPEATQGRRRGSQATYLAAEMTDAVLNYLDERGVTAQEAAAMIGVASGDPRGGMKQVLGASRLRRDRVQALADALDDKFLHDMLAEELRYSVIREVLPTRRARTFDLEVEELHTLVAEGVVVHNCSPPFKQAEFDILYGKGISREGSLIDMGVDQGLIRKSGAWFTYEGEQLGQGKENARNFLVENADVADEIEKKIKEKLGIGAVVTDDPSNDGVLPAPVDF
YopH inh: YopH tyrosine phosphatase inhibitors, primary screen, biochemical, fluorescence Ex485/Em525. YopH tyrosine phosphatase [Yersinia enterocolitica]. inhibition, %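 (about 10 µM by stock and volumes)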. 0.16% of 140,000 active;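 active = inhibition of 50% or more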;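 note: controls were vehicle for no effect and minimum signal wells for full effect; inactives centre near -20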
Arbovirus anti: antivirals against arbovirus infection, primary screen, cell-based, full library, 10K replicate subset. inhibition, % at 10 µM. arbovirus infection cell-based antiviral screen. 0.37% of 200,000 active;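 active = inhibition from about 30%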;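 note: bluetongue infection of BSR cells; cell survival read as ATP light after 72 h; 0% = infected wells without compound and 100% = uninfected wells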
Mtb bLac sens: beta-lactam sensitization of Mtb H37Rv, H37Rv; M. tuberculosis H37Rv growth with meropenem, percent inhibition; hits of this screen are not shown here; inhibition, % at 25 µM; 0.27% of 330,000 active; AID 434955, 2010;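 active = about 74% or more and at least 40 points above the plate without the antibiotic, then above 30% in a dose series; inconclusive = first-round hits that could not be retested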;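 note: growth measured after seven days incubation then overnight dye step; 0% = bacteria only wells and 100% = bacteria with antibiotic; twin plates without the antibiotic show which effects depend on it; some results filed as inactive read as strong as hits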
Mtb growth: M. tuberculosis H37Rv growth inhibitors, H37Rv strain (AID 1626); M. tuberculosis H37Rv growth inhibition; higher % means a stronger effect; inhibition, % at 10 µM, or IC50 in µM where a hit was titrated; 0.95% of 220,000 active;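 active = confirmed in a dose series; inconclusive = inhibition above 80% but not taken into the dose series; inactive = below 80% or under 30% at every dose of the series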;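 note: bacteria incubated seven days before Alamar blue readout; 0% = bacteria only wells and 100% = bacteria with antibiotic wells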
Arbovirus anti repeat: recorded beside Arbovirus anti, whose call it bears; inhibition, %; measured here: 10K subset replicate screen; many hits read low in the repeat;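 first of two repeat runs on a subset; 0% = infected and 100% = uninfected wells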
The depositor's hits bear a star; ? = inconclusive; . = not tested or not shown. Not all compounds are listed. The share of hits here may be higher or lower than overall.

SMILES | RecA intein inh | YopH inh | Arbovirus anti | Mtb bLac sens | Mtb growth | others
COC(=O)c1ccc(/C=N/NC(=O)C(=O)NCC2CCCO2)cc1 (configuration not stated) | 2.7 | . | . | -9.1 | -5.3%
COc1ccc(NC(=O)CSc2nccn2Cc2ccccc2)c(OC)c1 | -0.5 | . | . | -9.7 | .
O=c1[nH]c(CN2CCc3ccccc32)nc2scc(-c3cccs3)c12 | . | -63.0 | 10.9 | -1.5 | 2.6%
CCCOc1nc(C)cc(COC)c1C(N)=O | -3.0 | . | 3.2 | 4.1 | 1.8%
Cc1cc(N2CCCCC2)nc(N2CCCCC2)n1 | -0.2 | . | 8.7 | -1.7 | 6.2%
C(#Cc1ccccc1)C[N+]1(CC#Cc2ccccc2)CCCCC1 | 0.4 | . | 1.6 | -3.9 | -11.8%
CCOc1ccc(NC(=O)CN(C)C(=O)CSCc2ccc(C)cc2)cc1OCC | 0.7 | . | . | -13.7 | .
O=C(c1ccccc1)N(Cc1nc2ccccc2c(=O)[nH]1)C1CCCCC1 | 2.1 | . | 6.4 | -10.9 | -8.0%
C=CCN1C(=O)C(O)=C(C(C)=O)C1c1ccccc1F (configuration not stated) | 1.4 | -9.9 | 0.8 | 7.4 | 5.4%
O=C(Cn1ccc2ccccc2c1=O)Nc1ccc2c(c1)OCO2 | -2.2 | -27.0 | -3.4 | 1.6 | -8.8%

A run of entries from the list above:
SMILES | RecA intein inh | YopH inh | Arbovirus anti | Mtb bLac sens | Mtb growth | others
O=c1[nH]c(CN2CCc3ccccc32)nc2scc(-c3cccs3)c12 | . | -63.0 | 10.9 | -1.5 | 2.6%
CCCOc1nc(C)cc(COC)c1C(N)=O | -3.0 | . | 3.2 | 4.1 | 1.8%

Going on with the list.
SMILES | RecA intein inh | YopH inh | Arbovirus anti | Mtb bLac sens | Mtb growth | others
C/C(N)=C(/C#N)C(=O)COC(=O)c1ccccc1O | -2.1 | -30.5 | 7.8 | -2.1 | 1.8%
CC(NC(=O)CN1CCCC1)C12CC3CC(CC(C3)C1)C2 (configuration not stated) | -0.6 | -14.9 | 1.4 | . | 0.1%
COc1ccccc1-n1c(C)nc2cc(C(=O)NCc3ccc4c(c3)OCO4)ccc21 | 3.9 | -13.4 | -3.9 | -5.9 | -0.8%
COc1ccc(N2C(=O)CC(N3CCN(c4ccc(Cl)cc4)CC3)C2=O)cc1 (configuration not stated) | -0.1 | . | . | 2.3 | .
CCc1nn(CC(=O)NCCCN(Cc2ccccc2)C(C)C)c(=O)c2cc3sccc3n12 | . | -44.8 | -6.8 | -5.7 | 16.6%
CC(O)CNCCNCc1cccs1 (configuration not stated) | 4.3 | . | 1.6 | -4.0 | -5.2%
CCN(C(=O)CSc1nc2ccccc2c(=O)n1-c1ccc(C)cc1)C1CCS(=O)(=O)C1 (configuration not stated) | 1.6 | . | -2.3 | -3.3 | 2.6%
CC(C)c1ccc(NC(=O)COC(=O)CCC(=O)c2cccs2)cc1 | 0.3 | -45.4 | -0.5 | -5.3 | -10.8%
CCOc1ccccc1Nc1ncnc2ccc(Br)cc12 | -0.2 | . | . | 17.5 | .
O=C(Nc1ccc(CN2CCCCC2)cc1)c1cc(Br)ccc1Cl | 2.0 | . | -12.9 | -0.1 | 3.5%

Fetched by structure from the entries so far (2):
SMILES | RecA intein inh | YopH inh | Arbovirus anti | Mtb bLac sens | Mtb growth | others
CC(NC(=O)CN1CCCC1)C12CC3CC(CC(C3)C1)C2 (configuration not stated) | -0.6 | -14.9 | 1.4 | . | 0.1%
COc1ccccc1-n1c(C)nc2cc(C(=O)NCc3ccc4c(c3)OCO4)ccc21 | 3.9 | -13.4 | -3.9 | -5.9 | -0.8%

The results go on:
SMILES | RecA intein inh | YopH inh | Arbovirus anti | Mtb bLac sens | Mtb growth | others
CN1C(=O)COc2ccc(C(=O)c3ccccc3C(=O)O)cc21 | 0.6 | -4.8 | 1.5 | 0.8 | 25.7%
COc1ccc(N2CCN(c3cc(C)c4ccccc4n3)CC2)cc1 | 2.6 | . | 0.5 | -4.3 | 0.3%
CC1=NN(C(C#N)c2ccccc2O)C(C)(C)C1 (configuration not stated) | 4.2 | . | -0.1 | -4.2 | -3.1%
Cc1nn(C)c(Cl)c1NC(=O)OCc1ccc(Cl)cc1Cl | 1.9 | -49.3 | 3.6 | 4.1 | .
CCC(C)NC(=S)N1CCN(Cc2ccccc2)CC1 (configuration not stated) | 0.8 | . | -1.3 | -9.7 | -11.1%
CC1CCC(N2CCN(c3ncccn3)CC2)CC1 (configuration not stated) | 1.4 | -27.7 | 7.0 | -7.2 | 7.1%
O=C(C1=C[C@H](c2coc3ccccc3c2=O)C[C@H](OCc2ccc(CO)cc2)O1)N1CCOCC1 | -1.3 | . | 0.9 | -4.1 | -10.8%
CC(C)CC(NC(N)=O)C(=O)NCc1ccccc1Cl (configuration not stated) | 1.8 | . | -2.2 | 4.3 | 3.4%
COC(=O)c1ccc(C)c(NS(=O)(=O)c2cn(C)nc2C)c1 | -0.4 | . | . | -12.4 | .
Cc1cc(C)n(-c2nc3sc4c(c3c3nnc(SC(C)C)n23)CC(C)(C)OC4)n1 | . | 5.7 | . | -0.6 | .
Cc1cc(C)cc(NC(=O)N2CCCN(Cc3c(F)cccc3Cl)CC2)c1 | -0.2 | . | . | -11.6 | 4.8%
O=S(=O)(c1ccc2ccccc2c1)N1CCN(C(=S)Nc2ccccc2F)CC1 | 4.9 | . | . | -3.1 | -6.4%
CCOCCCNC(=O)C(NC(=O)CNC(C)=O)c1ccc(C)cc1 (configuration not stated) | -0.8 | -17.0 | 4.6 | 14.5 | -9.7%
COc1ccccc1/C=C/C=N/NC(=O)CCC1C(=O)NN=C1C (configuration not stated) | -2.2 | -18.4 | -7.9 | -0.8 | 6.1%
O=C(N/N=C/c1ccc(-c2ccccc2[N+](=O)[O-])o1)c1cccnc1 | 1.7 | -10.4 | -2.1 | -5.9 | -9.3%
Cc1cc(=O)c(C(=O)O)nn1-c1cccc(C(F)(F)F)c1 | 0.8 | . | . | -1.2 | .
CC(C)[C@H](NS(=O)(=O)c1ccc2c(c1)OCCO2)C(=O)OCC(=O)Nc1cccc(Cl)c1Cl | -1.3 | -27.3 | -6.9 | 0.7 | 0.7%
O=C(C1=C(O)C(=O)N(Cc2ccco2)C1c1ccccc1F)c1cccs1 (configuration not stated) | 3.8 | . | 13.9 | 5.6 | 1.6%
CSc1ccccc1N=CC1=C(O)CC(C)(C)CC1=O | 5.9 | -7.6 | -0.4 | 2.4 | -11.7%
COc1cccc(NC(=O)NC2CCN(Cc3nnnn3Cc3ccc(F)cc3)CC2)c1 | 1.1 | -51.2 | -2.6 | -20.9 | -7.2%
CC(=O)N1CCN(c2ccc([N+](=O)[O-])c(NCc3cccnc3)c2)CC1 | 1.9 | . | 5.4 | 13.2 | 2.7%
CCCCNC(=O)CS(=O)Cc1nc(-c2ccc(C)cc2)oc1C (configuration not stated) | 1.9 | -14.4 | 6.4 | -3.1 | 8.4% | Arbovirus anti repeat=0.8
CCC(C(=O)NC1CCCCC1)N(Cc1cccs1)C(=O)c1snc(C(N)=O)c1N (configuration not stated) | -1.3 | . | 0.4 | -1.2 | 5.4%
C#CCOCCOCCOCCNc1nc(N2CCN(C(=O)[C@H](C(C)C)n3cc(CCO)nn3)CC2)nc(N2CCN(C(=O)[C@H]([C@@H](C)CC)n3cc(CCCCN)nn3)CC2)n1 | -3.4 | 3.8 | 3.2 | -4.8 | 1.5%
COC(=O)c1[nH]c2cccc(OC)c2c1NC(=O)CN1CCC(C(N)=O)(N2CCCCC2)CC1 | 1.1 | -34.4 | 0.6 | -1.6 | -7.7%
CCCCC1(C(=O)OC)NC(c2ccc(O)cc2)C2C(=O)N(c3ccccc3)C(=O)C21 (configuration not stated) | -1.4 | . | . | 2.6 | .
Cc1[nH]n2c(=O)cc(-c3ccc([N+](=O)[O-])cc3)nc2c1-c1ccccc1 | -2.3 | -9.9 | . | 98.2 | 0.747µM*
COc1ccc(CN2CCC(n3nccc3NC(=O)C3CC3)CC2)c(OC)c1OC | -1.1 | . | . | 1.8 | .
CCC(C(=O)NCc1ccccc1OC)n1nc(C)n2c(cc3occc32)c1=O (configuration not stated) | -0.7 | -17.1 | 4.2 | -3.6 | -13.6%
COc1ccc(NC(=O)CC(NCc2ccccn2)C(=O)O)cc1 (configuration not stated) | -7.7 | . | 1.8 | -6.0 | -4.6%
Cc1ccccc1C(=O)Nc1nnc(SC(C)C)s1 | -1.0 | . | 9.2 | 6.8 | 1.7%
O=C(O)CCC(=O)Nc1ccc(-c2nnc(-c3ccco3)o2)cc1 | -1.3 | . | 7.0 | 0.6 | 2.0% | Arbovirus anti repeat=-3.4
CSc1ccc(/C=C/C(=O)N2CCN(c3ccccn3)CC2)cc1 | 4.5 | . | . | 45.9 | .
CCN1CCN(C(c2cccs2)C(C)NC(=O)c2cccc(OC)c2)CC1 (configuration not stated) | 1.1 | . | 1.1 | 0.2 | . | Arbovirus anti repeat=4.0
Cc1cc(NC(=O)C2CC(=O)N(c3cccc(C)c3C)C2)no1 (configuration not stated) | 0.7 | . | . | 1.7 | .
CCCCN(C)CCNC(=O)c1ccc(Cn2c(=S)[nH]c3ccc(Br)cc3c2=O)cc1 | -0.1 | . | -23.5 | 93.5 | ?
CC1Cc2cc(S(=O)(=O)N3CCC(C(N)=O)CC3)ccc2N1C(=O)C1CC1 (configuration not stated) | 1.6 | . | . | 1.7 | .
COc1ccc(OCC(O)CNC(=O)c2ccc(Br)cc2)cc1 (configuration not stated) | 1.8 | -1.7 | 7.3 | -1.7 | -4.6%
CCc1nnc(NC(=O)CN2CCN(c3cccc(OC)c3)CC2)s1 | -2.7 | -2.5 | 6.8 | -5.0 | 2.1%
NC(=O)c1ccc(C(F)(F)F)n(Cc2ccccc2Cl)c1=O | 0.1 | -19.0 | -3.4 | -2.5 | -2.5%
C=C(C)CSc1nc2ccccc2c(=O)n1-c1c(C)n(C)n(-c2ccccc2)c1=O | 3.7 | . | 25.8 | -13.0 | -10.6%
CCn1c(=O)c(C(=O)NNC(=O)c2ccc(Cl)cc2Cl)c(O)c2ccccc21 | -2.7 | . | . | 1.6 | .
Cc1cc(OCC(=O)Nc2ccccn2)c2c(C)c(C)c(=O)oc2c1 | 3.1 | . | . | 1.3 | .
CNC(=S)N/N=C(\C)c1cccc(C(F)(F)F)c1 | -2.3 | . | -3.2 | 0.9 | 35.0%
Cc1ccc(NC(=O)c2cc(C)n(-c3ccccc3)c2C)cc1 | 8.4 | -25.8 | -2.7 | 9.5 | 8.2%
C=C(C)COc1ccc(-c2[nH]ncc2-c2ccccc2OC)c(O)c1 | 10.8 | -16.7 | -37.1 | 4.6 | 4.0%
COc1ccc(NC(=O)c2ccccc2[N+](=O)[O-])cc1 | -0.8 | -40.2 | -6.9 | 2.4 | -5.3%
CCc1ccc(NC(=O)CCc2c(C)nn(-c3ccc(N4CCOCC4)nn3)c2C)cc1 | 3.7 | . | . | 2.4 | .
O=C(c1coc2ccccc2c1=O)N1CCN(c2cccc(C(F)(F)F)c2)CC1 | 1.7 | 2.2 | 4.3 | 1.6 | . | Arbovirus anti repeat=8.9
CCCN(CCC)S(=O)(=O)c1ccc(C(=O)NNC(=O)c2cc(OC)c(OC)c(OC)c2)cc1 | 0.0 | . | . | -2.5 | -20.0%
Following part
SMILES | RecA intein inh | YopH inh | Arbovirus anti | Mtb bLac sens | Mtb growth | others
CCN(Cc1ccncc1)C(=O)c1cc(COc2c(F)cccc2F)on1 | 2.1 | . | . | 9.6 | .
CCOC(=O)CNC(=S)N(Cc1ccccc1)Cc1cccnc1 | 1.2 | . | -2.5 | -4.7 | -2.9%
Cc1ccc(NC(=O)c2sc(N)nc2C)cc1 | -1.9 | . | . | ? | .
COc1ccc(NC(=O)CSc2nnc(N)n2CC(=O)Nc2ccc(OC)cc2)cc1 | 2.0 | . | -0.6 | 1.3 | -3.4%
CC(=O)N1CCCc2ccc(NS(=O)(=O)c3ccccc3)cc21 | -2.0 | . | . | -7.9 | .
COC(=O)c1nnn(-c2nonc2N)c1CSc1ccccn1 | 0.5 | 6.4 | 2.2 | -5.4 | 5.4%
CCCC(NC(=O)c1ccco1)c1nc2ccccc2[nH]1 (configuration not stated) | 0.2 | -24.8 | 0.8 | ? | -4.9%
O=C1CCC(NC(=O)c2ccccc2)C(=O)N1 (configuration not stated) | -0.7 | . | . | 2.4 | -15.8%
OCCN(CCO)CC(O)CN(c1ccccc1)c1ccccc1 (configuration not stated) | -1.8 | . | . | -3.8 | -4.2%
O=C(Nc1ccccc1)Nc1ccc(Oc2ncnc3cc(Cl)ccc23)nc1 | 0.7 | . | . | -6.6 | -11.9%
